Gli-Sufu block = blocks Gli-Sufu signaling in a luciferase reporter. inhibition, % at 5 µM. hit rate 0.74% among 340,000. Sufu-KO-LIGHT fibroblasts, Gli luciferase reporter luminescence;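 active = inhibition above about 55%, limit read from the data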;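 also: 0% = DMSO-treated cells and 100% = wells with medium but no cells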
EBI2 block = blocks human EBI2 receptor beta-arrestin signaling; inhibition, % at 5 µM; EBI2 beta-arrestin recruitment, luminescence, 7a,25-OHC stimulated; P32249; AID 651636; hit rate 0.81% among 360,000; in the data active = inhibition above about 38%;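 also: enzyme fragment complementation signal reports receptor beta-arrestin coupling in cells; 0% = agonist plus DMSO wells and 100% = wells without agonist; some results beyond the cut were filed as inactive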
UBC13 polyUb = blocks human UBC13 polyubiquitin chain formation; TR-FRET; hit rate 0.47% among 330,000; P61088; inhibition, % at 20 µM; in the data active = inhibition above about 45%, passing the limit was not always enough
ATG4B inhibitor = blocks human ATG4B protease cleavage of LC3 substrate | hit rate 0.51% among 340,000 | ATG4B cleavage of LC3-PLA2, NBD-HPC fluorescence, 1 h | Q9Y4P1 | inhibition, % at 8.33 µM; in the data active = inhibition above about 40%
Target sequence (Q9Y4P1 whole entry, looked up): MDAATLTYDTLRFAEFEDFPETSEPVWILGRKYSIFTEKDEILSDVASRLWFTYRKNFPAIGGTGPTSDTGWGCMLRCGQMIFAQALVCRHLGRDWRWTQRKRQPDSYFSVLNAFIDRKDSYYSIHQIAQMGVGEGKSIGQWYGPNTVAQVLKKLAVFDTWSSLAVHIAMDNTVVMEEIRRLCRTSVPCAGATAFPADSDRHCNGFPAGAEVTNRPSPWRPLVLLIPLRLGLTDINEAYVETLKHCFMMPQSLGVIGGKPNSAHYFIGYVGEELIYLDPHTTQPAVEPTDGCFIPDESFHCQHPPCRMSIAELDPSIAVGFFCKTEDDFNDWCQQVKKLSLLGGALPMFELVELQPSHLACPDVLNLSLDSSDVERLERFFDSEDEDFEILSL
Active calls of the source: *; & = joins results of further samples. Only part of the results is shown; the hit share may differ from the screen's.

Letters: A = Gli-Sufu block; B = EBI2 block; C = UBC13 polyUb; D = ATG4B inhibitor
COc1ccccc1-n1c(SCC(=O)NCC2CCCO2)nc2c([nH]c3ccccc32)c1=O (stereo not drawn)
  A: 9 | B: 22 | C: -9 | D: -10

Cc1nc2sc(C(N)=O)c(N)c2c(C)c1CC(=O)c1ccccc1
  A: -59 | B: -5 | C: 1 | D: 2

O=C(NN=C(c1ccccc1)c1ccccn1)c1ccccc1
  A: 54 | B: -7 | C: -27 | D: -5

O=C(C1CCN(S(=O)(=O)c2cccc3nsnc23)CC1)N1CCn2c1nc1ccccc12
  A: 3 | B: 86* | C: -2 | D: -14

CN(C)c1ccc(C(=O)Nc2nnc(-c3ccc(Cl)cc3)o2)cc1
  A: 3 | B: 1 | C: -6 | D: -1

O=C(N/N=C\c1ccccn1)c1ccccc1O
  A: -12 | B: -2 | C: -14 | D: 4

CC1(C)CC(=O)C(C=Nc2cc(C(=O)c3ccccc3)ccc2N)=C(O)C1
  A: -3 | B: 1 | C: -13 | D: -1

COc1cccc(C(=O)N/N=C(/c2ccccc2)c2ccccn2)c1
  A: 81* | B: 9 | C: -13 | D: -11

O=C(C[C@H]1C/C=C/CC[C@@H](Cc2ccc(F)cc2)C(=O)O[C@@H](c2ccccc2)CNC1=O)NCCO
  A: 10 | B: 6 | C: -7 | D: 2

CCC1Nc2ncnc(N3CCCCC3)c2N(Cc2ccc(Cl)cc2)C1=O (stereo not drawn)
  A: 4 | B: 16&4 | C: 18 | D: -1

CC1=NC(Nc2nc(C)c3ccccc3n2)=NC(C)(C)C1
  A: 4 | B: 26 | C: 18 | D: -15

FC(F)(F)c1nnc(-c2ccccc2)nc1Sc1ccccc1
  A: -5 | B: 5 | C: -14 | D: -5

CCC1Nc2ncnc(N3CCN(c4ccccn4)CC3)c2N(Cc2ccc(Br)cc2)C1=O (stereo not drawn)
  A: 28 | B: 87* | C: 11 | D: 4

Entries of single compounds from above. Order of values: Gli-Sufu block, EBI2 block, UBC13 polyUb, ATG4B inhibitor
O=C(N/N=C\c1ccccn1)c1ccccc1O reads -12, -2, -14, 4
O=C(C[C@H]1C/C=C/CC[C@@H](Cc2ccc(F)cc2)C(=O)O[C@@H](c2ccccc2)CNC1=O)NCCO reads 10, 6, -7, 2
CC1(C)CC(=O)C(C=Nc2cc(C(=O)c3ccccc3)ccc2N)=C(O)C1 reads -3, 1, -13, -1
Cc1nc2sc(C(N)=O)c(N)c2c(C)c1CC(=O)c1ccccc1 reads -59, -5, 1, 2
O=C(NN=C(c1ccccc1)c1ccccn1)c1ccccc1 reads 54, -7, -27, -5
